Compound activity deposited in PubChem BioAssay by ICCB-Longwood Screening Facility, Harvard Medical School.
AID504770: growth inhibitors of E. coli YBA685 in a screen for V. cholerae RctB (chromosome II replication) inhibitors. E. coli YBA685 rctB-dependent plasmid, OD600 growth, 3 h; active compounds read low. z-score (no concentration beside the values). hit rate 0.27% among 130,000;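 active = z-score under -2 on both plates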;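 note: wells of about 30 µL received 100 nL stock; score is relative to mean and SD of the test wells; the first replicate is given; strong numbers were not always called active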
Ba CapD inh: inhibitors of Bacillus anthracis CapD enzyme | z-score (test concentration not listed) | hit rate 0.23% among 140,000 | purified CapD enzyme, fluorescence intensity read-out; active compounds read low; some hits fall short of the stated cut;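 active = z-score under -4 in either of two replicates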;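 note: stock transfer was 100 nL into about 40 µL; score is relative to mean and spread of the plate; one replicate is shown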
Starred values were filed as active, the others as inactive; . = no result given; & = joins results of further samples.

SMILES | AID504770 | Ba CapD inh
COc1ccc(S(=O)(=O)N2CCN(C)CC2)cc1C | 0.15 | 0.19
O=C(Nc1cccnc1Oc1ncnc2cc(Cl)ccc12)c1cccs1 | 0.1 | 0.43
CCS(=O)(=O)C(=C1NCCO1)S(=O)(=O)CC | -0.45 | .
CC1=CCC2COC(c3ccccc3)C1C2 (stereo not given) | -0.55 | -0.18
COc1cc(OC)nc(N2CCN(C(=O)c3ccc(C(C)(C)C)cc3)CC2)n1 | . | -0.39
O=C1/C(=C/c2cccs2)SC(=S)N1c1cccc(C(F)(F)F)c1 | 1.7 | 0.15
CC(C)N(C(=O)COc1ccccc1C(=O)Nc1ccccc1)C(C)C | 0.5 | .
CC1CN(CC(=O)Nc2ccccc2C(C)C)CC(C)O1 (stereo not given) | -0.4 | .
N#CC1=C(C#N)NC2(CCCCC2)C2CCCCC2=N1 (stereo not given) | -0.85 | -0.94
N#Cc1ccc(OC(F)F)cc1 | -2.4 | .
O=C(Nc1ccc(-n2nc(C(F)(F)F)cc2C(F)(F)F)cc1)Nc1cc(Cl)cc(Cl)c1 | . | 0.12
CC(=O)N1CCN(c2csc3ccccc3c2=O)CC1 | 0.25 | -3.4
COCCCNC(=O)CSc1nc2ccccc2c(=O)n1CCCC(=O)NCCc1ccc(OC)c(OC)c1 | . | -0.075
CCN1C(=O)c2cccc3c(NC(=O)c4ccc(S(=O)(=O)N(C)C)cc4)ccc1c23 | . | -1
CCOC(=O)Nc1nnc(C(C)C)s1 | 0.25 | 0.36
CCOC(=O)/C(N=O)=C(\O)C1CCN(C(=O)OCC)CC1 | -0.7 | 0.005
CCn1nc(C(=O)NC2CCCc3ccccc32)c2ccccc2c1=O (stereo not given) | -0.8 | .
CCOC(=O)CSc1nc2c([nH]c3ccccc32)c(=O)n1-c1ccc(C)cc1 | -0.75 | 1.2
C=CCn1c(NCc2c[nH]c3ccccc23)nc2ccccc21 | -0.55 | -0.035
CC(=O)Oc1cc(OC(C)=O)c2c(=O)c(-c3ccc4c(c3)OCCCO4)c(C)oc2c1 | . | 0.96
CCOc1cccc(C2CC(=O)Nc3c2cc(Br)c2ccccc32)c1 (stereo not given) | . | 0.2
C=CCn1c(SCc2ccc3nonc3c2)nnc1-c1cccnc1 | 0.6 | -0.28
COc1ccncc1C(=O)Nc1cc(Cl)cc(Cl)c1 | 0.85 | -0.47
CNC(=O)Oc1ccc2c(c1)[C@]1(C)CCN(C)[C@@H]1N2C | 0.1&0 | 0.97&1.6
CCn1c(NCc2ccccc2O)nc2ccccc21 | 0.8 | 0.1
Cc1csc(C(=O)NNC(=O)OCCc2ccc(Cl)cc2Cl)c1-n1cccc1 | . | -0.065
CC(=O)SCc1n[nH]c(=S)n1C(C)=O | 0.3 | .
Cc1ccc(SCCC(=O)NCCc2ccc(F)cc2)cc1 | -0.3 | -0.1
CSC(=NCc1ccco1)Nc1ccc(C)cc1C | 0.75 | 0.095
CN1CCCC(OC(=O)c2ccc(F)cc2)C1 (stereo not given) | 0.15 | .
Cc1c(C(=O)N2CCN(c3ccc([N+](=O)[O-])cc3)CC2)sc2ncn(CC(=O)N3CCCCC3)c(=O)c12 | . | -1.2
COc1ccc(OCC(O)Cn2c(NCCCn3ccnc3)nc3c2c(=O)[nH]c(=O)n3C)cc1 (stereo not given) | . | 0.62
COc1ccc(C2=NN(C(=O)CCC(=O)O)C(c3ccccc3Cl)C2)cc1 (stereo not given) | . | 5
Cn1c(-c2ccccc2)cn2cc(-c3ccccc3)nc12 | 0.25 | 14
N#CC1=C(N)Oc2nc[nH]c(=O)c2C1c1ccncc1 (stereo not given) | -0.5&0.5 | 0.64
CCN(CC)CCOc1ccccc1 | 1.1 | 0.08
COc1ccc2c(c1)c(=O)c1ccccc1n2CC(=O)Nc1cccc(C(F)(F)F)c1 | . | 0.04
O=c1[nH]c(CN2CCC(Cc3ccccc3)CC2)nc2scc(-c3cccs3)c12 | 0.1 | .
O=C1NC(/C=C/c2ccco2)Nc2sc3c(c21)CCN(Cc1ccccc1)C3 (stereo not given) | 0.15 | 0.2
N#Cc1c(-c2cccs2)cc(-c2ccc(C(=O)O)cc2)nc1SCc1cccs1 | -0.4 | 38

Molecules from the list above that contain a furan ring, fused or not:
SMILES | AID504770 | Ba CapD inh
CSC(=NCc1ccco1)Nc1ccc(C)cc1C | 0.75 | 0.095
O=C1NC(/C=C/c2ccco2)Nc2sc3c(c21)CCN(Cc1ccccc1)C3 (stereo not given) | 0.15 | 0.2

(cont.)
SMILES | AID504770 | Ba CapD inh
O=C(COc1ccccc1C(=O)O)NCCN1CCOCC1 | 0.75 | -0.2
O=C(Nc1ccccc1)Nn1cnc2ccccc2c1=O | 0 | .
CCn1cc(SC(=N)N)c2ccccc21 | -0.4 | -0.83
O=C1NC(=O)N(c2ccccc2)C(=O)/C1=C\c1ccn(-c2cccc([N+](=O)[O-])c2)c1 | . | 0.37
Cc1onc(-c2ccccc2)c1C(=O)NC(=S)Nc1ccc(Cl)cc1 | -0.8 | 1.1
NC(=O)C1CCN(Cc2ccc(Cl)cc2)CC1 | -0.8 | 0.15
CCCCc1ccc(C(=O)O)nc1 | . | -0.015
Cc1ccc(C(=O)c2c(NC(=O)CSc3nnnn3C)sc3c2CCCC3)cc1 | -0.5 | .
CC(C)(C)NC(=O)NC(=O)Cn1nc(C(=O)O)c2ccccc2c1=O | 0.4 | .
NC(=O)c1sc(=S)n(-c2ccccc2)c1N | 0.15 | -3
COc1ccc(C(=O)NC(=O)CSc2n[nH]c(N)n2)cc1 | -0.5 | .
CC1(C)CCCC2=C1CC(C(=O)O)C(C(=O)NCc1cccnc1)C2 (stereo not given) | -0.2 | 0.29
Cc1ccsc1C=Nc1ccc(Cl)cc1C(=O)c1ccccc1 | -0.35 | 0.44
COc1ccc(CC2CCC(=NOC(=O)c3cccc(C(F)(F)F)c3)CC2)cc1 (stereo not given) | . | 0.49
O=C(N/C(=C\c1cccnc1)C(=O)N1CCCCC1)c1ccccc1 | -0.7 | -0.34
CN(C)CCC(O)c1ccc2c(c1)OCCCCO2 (stereo not given) | -0.5 | -0.21
Cc1ccccc1CS(=O)(=O)Cc1ccc(C(=O)NC2CC2)o1 | 1.1 | -1.1
O=C(O)C(CO)c1ccccc1 (stereo not given) | 0.1 | 0.23
CC(=O)N1c2c(cc(Br)cc2S(=O)(=O)N2CCN(c3ccc(C)cc3)C(C)C2)CC1C (stereo not given) | 0.65 | 0.49
CCOC(=O)Cc1cc(=O)n2[nH]c(C)cc2n1 | -1.3 | 4.4
C(/C=C/c1ccn[nH]1)=C\c1ccccc1 | -0.2 | 56
CC1OC1P(=O)(O)O (stereo not given) | 0.45 | -0.05
CC1CC(C)CN(c2ncnc3c2nc2n3CCCCC2)C1 (stereo not given) | 0.75 | 0.015
O=C1OC(C2CCCCC2)=N/C1=C\c1ccccc1 | -0.35 | 0.17
NC1=Cc2ccccc2CN1c1ccccc1Cl | -1.1 | 0.38
C=CCn1c(=O)c2ccccc2n2c(SCC(=O)c3cc(C)ccc3C)nnc12 | 0.1 | .
O=S(=O)(NCc1ccccc1)c1ccccc1C(F)(F)F | -0.45 | .
CCOC(=O)C1(C(=O)OCC)CC1(C(=O)OCC)C(=O)OCC | 0.2 | .
O=c1c2ccccc2c2ccccc2c(=O)n1Cc1cccnc1 | -0.85 | -0.67
COc1ccc(CNC(=O)C2C(Oc3ccc(Cl)cc3Cl)C(=O)N2c2cccc(C)c2C)cc1 (stereo not given) | 0.9 | -0.45
Cc1sc2nc(CSC(C)C(=O)OCc3cc(=O)n4ccsc4n3)[nH]c(=O)c2c1C (stereo not given) | 0.35 | .
NC(=O)c1ccccc1OCC(=O)NCC(F)(F)F | -0.55 | .
CCN(CC)Cn1nc(-c2ccccc2Cl)oc1=S | -1.9 | .
N#CCSc1nnnn1-c1cccnc1 | -0.8 | .
CC(C)CCNC(=O)c1cccn2c(=O)c3cc4ccccc4cc3nc12 | 0.15 | 0.38
Cn1c(-c2cccn(Cc3ccc(Cl)c(Cl)c3)c2=O)n[nH]c1=S | . | 4.2
CC1=NN(c2ccc(C(=O)N3CCC(Cc4ccccc4)CC3)cc2)C(=O)C1 | . | -0.41
CCOC(=O)c1ccc(N2C(=O)C(O)=C(C(=O)c3ccco3)C2c2cccnc2)cc1 (stereo not given) | -0.6 | .
O=C1CSC(c2ccccc2Br)N1c1cccc(C(F)(F)F)c1 (stereo not given) | . | -0.29
COc1ccccc1CNC(=O)C(NC(=O)C1CCCCC1)C(C)C (stereo not given) | -1.6 | 0.035
CC1CC(=O)Nc2ccccc2N1C(=O)CNCc1ccccc1 (stereo not given) | 2 | -0.97
O=C(Nc1ccccc1Br)c1cc(S(=O)(=O)N2CCN(c3ccccc3F)CC2)ccc1F | . | 0.01
S=c1[nH]cnc2sccc12 | -0.05 | .
Cn1c(=O)c2c(nc(CN3CCCCC3)n2CC(N)=O)n(C)c1=O | . | -0.22
COc1cc(OC)nc(C(Sc2ccc(NC(=O)c3cccs3)cc2)c2ccccc2)n1 (stereo not given) | . | -0.43
COC(=O)C1Cc2c([nH]c3ccccc23)C(c2ccc(Cl)cc2)N1 (stereo not given) | 0.4 | 3.7
Cc1ccc(C(C)C)cc1OC(=O)c1cn(CCC#N)nc1-c1cccs1 | -0.1 | 0.6
CN(CC(=O)Nc1ccc(F)c(F)c1F)C(=O)C1COc2ccccc2O1 (stereo not given) | 1.8 | .
COc1cc(C2C(C(=O)N3CCOCC3)=C(C)NC3=C2C(=O)CC(C)(C)C3)cc(Br)c1OC (stereo not given) | . | 23
CCN(CC)c1ccc(/C=C2\SC(=S)N(c3c(C)n(C)n(-c4ccccc4)c3=O)C2=O)cc1 | . | -1.2
CCCOC(=O)COc1ccc2c(=O)c(Oc3cccc(C)c3)c(C(F)(F)F)oc2c1 | . | -0.46
CCCC(=O)N1c2c(C)cc(C)cc2-c2c(ssc2=S)C1(C)C | . | -0.68
O=C(O)C1CCCCC1C(=O)Nc1cccc(C(F)(F)F)c1 (stereo not given) | 2.2 | 0.2
O=C(CSc1nnc(-c2ccc(Cl)cc2)o1)c1ccc(Cl)cc1 | -0.1 | .
CC1CN(c2ncc(C(=O)OCc3ccccc3)c(C(F)(F)F)n2)CC(C)O1 (stereo not given) | -0.4 | 0.32
O=C(COC(=O)c1ccc(Br)cn1)c1ccccc1 | -0.05 | -0.48
Cc1cc(-c2ccco2)n(CC(=O)O)n1 | -0.15 | 0.25
CN1CCN(CC(O)COc2ccc3ccccc3c2)CC1 (stereo not given) | 0.25 | 1.8
Brc1ccc(-c2nnc3sc(CNCc4ccco4)cn23)cc1 | -0.05 | .
COc1ccc(OC)c(-n2c(=S)[nH]c3cc(C(=O)Nc4ccc(OC)c(Cl)c4)ccc3c2=O)c1 | . | -0.65

Gathered by group: the compounds so far with an aryl thioether with sulfur outside any ring.
SMILES | AID504770 | Ba CapD inh
COCCCNC(=O)CSc1nc2ccccc2c(=O)n1CCCC(=O)NCCc1ccc(OC)c(OC)c1 | . | -0.075
CCOC(=O)CSc1nc2c([nH]c3ccccc32)c(=O)n1-c1ccc(C)cc1 | -0.75 | 1.2
C=CCn1c(SCc2ccc3nonc3c2)nnc1-c1cccnc1 | 0.6 | -0.28
Cc1ccc(SCCC(=O)NCCc2ccc(F)cc2)cc1 | -0.3 | -0.1
N#Cc1c(-c2cccs2)cc(-c2ccc(C(=O)O)cc2)nc1SCc1cccs1 | -0.4 | 38
Cc1ccc(C(=O)c2c(NC(=O)CSc3nnnn3C)sc3c2CCCC3)cc1 | -0.5 | .
COc1ccc(C(=O)NC(=O)CSc2n[nH]c(N)n2)cc1 | -0.5 | .
C=CCn1c(=O)c2ccccc2n2c(SCC(=O)c3cc(C)ccc3C)nnc12 | 0.1 | .
N#CCSc1nnnn1-c1cccnc1 | -0.8 | .
COc1cc(OC)nc(C(Sc2ccc(NC(=O)c3cccs3)cc2)c2ccccc2)n1 (stereo not given) | . | -0.43
O=C(CSc1nnc(-c2ccc(Cl)cc2)o1)c1ccc(Cl)cc1 | -0.1 | .

Following part
SMILES | AID504770 | Ba CapD inh
Cc1ccc(-c2cn(S(=O)(=O)c3cccc4nsnc34)nc2N)cc1 | -0.95 | -1.2
Cc1cc2ncn(S(=O)(=O)N(C)C)c2cc1C | 1.1 | 0.17
COc1cc(OC)c(NC(=O)/C=C/c2cc(C)n(Cc3ccco3)c2C)cc1Cl | 0.2 | .
O=C(Nc1ccc2ccccc2c1)/C(=C/c1ccco1)c1ccccc1 | 1.8 | -2
COc1ccccc1C1c2cc3c(cc2OC(C)(O)C1C)OCO3 (stereo not given) | -0.05 | 0.035
CC(C)C(=O)N1CCC(CN=CC2=C(O)CC(C)(C)CC2=O)CC1 | -0.35 | .
COc1cc(N=Cc2cc3cccc(C)c3nc2Cl)c(OC)cc1Cl | -0.5 | 0.12
CCC(CC(C)C)CC(C)C1CCC2C3CC=C4CC(OC(=O)c5cccnc5)CCC4(C)C3CCC12C (stereo not given) | . | 0.8
COc1ccc(/C=N/S(=O)(=O)c2cccs2)cc1 | 0.1 | .
CC1C(=O)OC(c2ccc(Br)cc2)C(C)(C)C1=O (stereo not given) | -0.1 | 0.34
Cc1ccc(COc2ccc(CC#N)cc2)cc1 | . | -0.36
CCc1ccc(CCC(=O)O)cc1 | 0.8 | .
CSc1nnc(CSc2ncccn2)n1-c1cccc(C(F)(F)F)c1 | 0.5 | -0.095
CC1CCN(C(=O)c2ccc3c(c2)OCCO3)CC1 | -1.1 | .
COc1ccc(N2C(=O)C3ON(C4SC(=S)N(C)C4(C)C)C(c4ccc([N+](=O)[O-])cc4)C3C2=O)cc1 (stereo not given) | . | -0.28
CC1CC(C)CN(S(=O)(=O)c2ccc(C(=O)Nc3nnc(C4CC4)o3)cc2)C1 (stereo not given) | 0.2 | .
Fc1cccc(Nc2nc3nonc3nc2Nc2cccc(F)c2)c1 | . | -0.23
CCCNC(=O)C1CC(c2cnn(CC)c2C)=NO1 (stereo not given) | -0.4 | -0.01
